Screens (PubChem BioAssay)
OX1R antag: blocks the human orexin 1 receptor; O43613; OX1R-expressing cells, FRET antagonist read-out; inhibition, % at 6.6 µM; hit rate 1.8% among 330,000; in the data active = inhibition mostly above about 38%, no sharp cut-off; inactive = mostly below about 40%;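 note: 0% = agonist challenge alone and 100% = reference antagonist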
Target sequence (O43613 whole entry, looked up): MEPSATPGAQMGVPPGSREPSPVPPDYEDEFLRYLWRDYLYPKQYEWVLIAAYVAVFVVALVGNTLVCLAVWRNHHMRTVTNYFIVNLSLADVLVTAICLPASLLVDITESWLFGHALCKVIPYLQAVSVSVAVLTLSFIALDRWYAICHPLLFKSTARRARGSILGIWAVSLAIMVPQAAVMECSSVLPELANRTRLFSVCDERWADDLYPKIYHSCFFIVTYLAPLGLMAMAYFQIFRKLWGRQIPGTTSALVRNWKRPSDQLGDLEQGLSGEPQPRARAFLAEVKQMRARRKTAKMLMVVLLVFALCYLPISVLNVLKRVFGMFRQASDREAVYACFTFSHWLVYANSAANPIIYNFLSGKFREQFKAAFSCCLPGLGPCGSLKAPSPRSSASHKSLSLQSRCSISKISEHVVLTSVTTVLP
* = called active by the depositor. The list is partial; most or all hits stand in other tables.

Results for Cc1cc(C)nc(N2CCC(C(=O)NCCc3ccc(Cl)cc3)CC2)n1 ?
OX1R antag: 14

What do the screens show for `COCCNC(=O)COc1ccc(C)cc1C`?
OX1R antag: -1

How did CCc1ccc(Nc2nc(N3CCOCC3)nc(N3CCOCC3)n2)cc1 do in these assays?
OX1R antag: 10

Results for CCN(CC)S(=O)(=O)c1ccc(-c2nnc(SC)o2)cc1 ?
OX1R antag: 5

What do the screens show for `Cc1ccc(S(=O)(=O)N2CCN(C(=O)CCc3c[nH]c4ccccc34)CC2)c(C)c1`?
OX1R antag: -2

Results for Cc1ccc(NC(=O)Cc2cc(C(=O)O)c3ccccc3n2)c(C)c1 ?
OX1R antag: 25

Results for CC(C)c1ccc(NS(=O)(=O)c2ccc(N3C(=O)CCC3=O)cc2)cc1 ?
OX1R antag: -1

How did CC1CCCCN1S(=O)(=O)c1cnc(Cl)c(Br)c1 (stereo not drawn) do in these assays?
OX1R antag: 25

What do the screens show for `O=C1COc2ccc(C(=O)COC(=O)Cc3ccccc3F)cc2N1`?
OX1R antag: 8

What do the screens show for `C=CCn1c(SCC(=O)Nc2cc(C)ccc2C)nnc1-c1cnccn1`?
OX1R antag: 13

How did CCOc1ccccc1OCCNC1CCCC1 do in these assays?
OX1R antag: 8

What do the screens show for `Cc1cc(N2CCCC2=O)ccc1S(=O)(=O)NCCOc1ccccc1`?
OX1R antag: 15

How did Cn1nnnc1-c1cc(Br)ccc1NC(=O)c1ccccc1 do in these assays?
OX1R antag: 5

What do the screens show for `CCOC(=O)C1CCN(C(=O)COc2ccc(S(=O)(=O)NC(C)C)cc2Cl)CC1`?
OX1R antag: 21

Results for O=C(CSc1nc2c(c(=O)[nH]1)CCC2)Nc1ccc(F)cc1 ?
OX1R antag: 16

Results for NC(=O)c1ccccc1NC(=O)N1CCOCC1 ?
OX1R antag: 12

What do the screens show for `O=C(Cc1cccs1)Nc1cccc(C(=O)Nc2ccc(C(=O)O)cc2)c1`?
OX1R antag: 24

How did O=C(O)/C=C/C(=O)Nc1ccccc1C(=O)OCC(=O)c1ccc2c(c1)OCCO2 do in these assays?
OX1R antag: 5

Results for CC1(c2ccccc2)NC(=O)N(CC(=O)NCc2ccc3c(c2)OCO3)C1=O (stereo not drawn) ?
OX1R antag: 22

Results for CO/N=C/NC(=O)c1c(OC)ccnc1Oc1ccc(Cl)cc1 ?
OX1R antag: -1

What do the screens show for `C(=C\c1ccccc1)/CSc1nnc(-c2cccnc2)n1Cc1ccco1`?
OX1R antag: 17

What do the screens show for `COc1ccc(-c2cc(C(N)=O)nc(N3CCCCCC3)n2)cc1`?
OX1R antag: 16

Results for Clc1cccc(Cl)c1-c1nnc2cccc(Cl)n12 ?
OX1R antag: 17

What do the screens show for `C=CCOc1ccc(/C=C/C(=O)OCC(=O)NCC(=O)Nc2c(C)cc(C)cc2C)cc1`?
OX1R antag: 18

Results for CC(=O)c1ccc(S(=O)(=O)NC2CCCCCCC2)cc1 ?
OX1R antag: 13

What do the screens show for `COC(c1ccccc1)c1nnc(CCC(=O)N2CCN(Cc3cccs3)CC2)o1` (stereo not drawn)?
OX1R antag: 10

How did COc1ccc(C(=O)NCc2nnc(SCC(=O)Nc3cccc(OC)c3)o2)cc1 do in these assays?
OX1R antag: 21

What do the screens show for `COc1ccc(NC(=O)Cn2nnc(C(=O)NCc3ccc(C)cc3)c2N)cc1OC`?
OX1R antag: 22

Results for O=C(O/N=C(/c1ccccc1)c1ccncc1)c1ccccc1[N+](=O)[O-] ?
OX1R antag: 4

How did Oc1ccccc1N1CCN(c2ccc3ccccc3n2)CC1 do in these assays?
OX1R antag: 17

What do the screens show for `CCOCCN1CCN(C(=O)CN2CCCC2=O)CC1`?
OX1R antag: 21

Results for COc1cccc(NC(=S)N(CCCN2CCCC2)Cc2cccn2Cc2ccc(Cl)cc2)c1 ?
OX1R antag: 16

What do the screens show for `O=C1CC(c2ccsc2)c2ccc3ccccc3c2N1` (stereo not drawn)?
OX1R antag: 29

What do the screens show for `COc1ccc(C2=NN(CN3C(=O)C(=O)c4ccccc43)C(c3ccc(C)cc3)C2)cc1` (stereo not drawn)?
OX1R antag: 16

Results for CCOc1ccc(CC2S/C(=N/c3ccccn3)NC2=O)cc1 (stereo not drawn) ?
OX1R antag: 4

Results for Cc1cc(C(=O)OCC(=O)Nc2cc(C(F)(F)F)ccc2N2CCOCC2)c(C)o1 ?
OX1R antag: 13

What do the screens show for `COC(=O)C1=C(C)NC(=O)C1(NS(=O)(=O)c1ccc(C)cc1)C(F)(F)F` (stereo not drawn)?
OX1R antag: 6

How did CC(O)CNc1nc(NCc2ccccc2)c2cnn(C)c2n1 (stereo not drawn) do in these assays?
OX1R antag: 8

How did CSCC[C@H](NC(=O)c1cc2c([nH]c3ccccc32)c(-c2ccccc2)n1)C(=O)O do in these assays?
OX1R antag: 6

How did O=C(CCSc1ccccc1)NC(=O)COC(=O)c1ccc(OC(F)F)cc1 do in these assays?
OX1R antag: 5

What do the screens show for `O=c1n(-c2ccc(Br)cc2)cnn1-c1ncccc1[N+](=O)[O-]`?
OX1R antag: 10

How did Cc1c(NC(=O)COC(=O)C23CC4CC(CC(Br)(C4)C2)C3)c(=O)n(-c2ccccc2)n1C do in these assays?
OX1R antag: 15

How did CN(C)c1ccc(-c2ccc([C@H]3[C@@H]4C=CCC[C@@]4(C)C(=O)N3Cc3ccccc3)c(F)c2)cc1 do in these assays?
OX1R antag: 10

Results for Cc1ccc(S(=O)(=O)N(C)C[C@@H]2Oc3c(NS(C)(=O)=O)cccc3C(=O)N([C@H](C)CO)C[C@@H]2C)cc1 ?
OX1R antag: 7

Results for CN(CCCNC(=O)Cn1cccc1C(=O)c1ccccc1)C1CCCCC1 ?
OX1R antag: 9

Results for Cn1c(=O)[nH]c(=O)c2c1nc(Br)n2CCSc1ncccn1 ?
OX1R antag: 33

Results for Cc1cccc(N2C(=O)C3C(c4ccccc4)OC4(C(=O)c5ccccc5C4=O)C3C2=O)c1 (stereo not drawn) ?
OX1R antag: 8

How did Cc1ccc(S(=O)(=O)N2CCN(C(=O)Cn3nc(C)c([N+](=O)[O-])c3C)CC2)cc1 do in these assays?
OX1R antag: 10

How did CCCCn1c(N)c(N(CC)C(=O)C2CCC2)c(=O)[nH]c1=O do in these assays?
OX1R antag: 6

What do the screens show for `O=C1CC(O)(c2ccccc2)C(c2ccccc2)=C1c1ccccc1` (stereo not drawn)?
OX1R antag: 44

How did O=C(ON=C1CCN(S(=O)(=O)c2ccccc2)CC1)c1ccc(F)cc1 do in these assays?
OX1R antag: 30

What do the screens show for `CC(=O)C1=C(c2ccccc2)NC(=O)NC1c1ccccc1` (stereo not drawn)?
OX1R antag: 6

Results for CCOC(=O)C1=C(C)NC(=O)NC1C(C)C (stereo not drawn) ?
OX1R antag: 15

Results for CCCN(C1CCS(=O)(=O)C1)S(=O)(=O)c1ccc(F)cc1 (stereo not drawn) ?
OX1R antag: 14

What do the screens show for `CC(C)NC(=O)N(C)C[C@H]1Oc2c(NC(=O)Cc3ccccc3)cccc2C(=O)N([C@H](C)CO)C[C@@H]1C`?
OX1R antag: 2

What do the screens show for `COC(=O)COc1ccc(S(=O)(=O)NCCC2=CCCCC2)cc1`?
OX1R antag: -4

Results for O=C(N/N=C/c1sc(N2CCCCC2)nc1-c1cccs1)C1CC1 ?
OX1R antag: 31

Results for CCOC(=O)C(C(=O)Nc1cccc(C)n1)C1CCCCC1 (stereo not drawn) ?
OX1R antag: 24

How did Cc1ccc(CS/C(Nc2ccccc2C)=C(\C#N)C(=O)NCc2ccco2)c(C)c1 do in these assays?
OX1R antag: 10

How did O=C(CCC(=O)N(CC(=O)NC1CCCCC1)Cc1cccs1)Nc1nccs1 do in these assays?
OX1R antag: 10

Results for CCCOc1ccc(/C=c2\sc3ncnn3c2=O)cc1 ?
OX1R antag: 34

What do the screens show for `CC1(C)C[C@@H]2C[C@@](C)(CN2C(=O)c2cc(COc3cccc(C(F)(F)F)c3)on2)C1`?
OX1R antag: 5

What do the screens show for `CCc1ccc(OCc2nc(-c3ccccn3)no2)c(Br)c1`?
OX1R antag: 11

How did CCC(CO)(CO)N(CC(=O)Nc1ccc(OC)cc1)CC(=O)Nc1ccc(OC)cc1 do in these assays?
OX1R antag: 16

Results for Cc1ccc(S(=O)(=O)N2CCN(C(=O)CSc3ncn[nH]3)CC2)c(C)c1 ?
OX1R antag: 17

How did Cc1ccc(C(=O)NC(NCc2ccccc2)C(Cl)(Cl)Cl)cc1 (stereo not drawn) do in these assays?
OX1R antag: 42

How did CC(=O)c1nn(-c2cccc(Cl)c2)cc1C(=O)c1ccco1 do in these assays?
OX1R antag: 10

What do the screens show for `CC(=O)Nc1c(-c2ccccc2)c2cc(Br)ccc2[nH]c1=O`?
OX1R antag: 17

How did CN(CC(=O)Nc1ccc(F)c(F)c1F)C(=O)C1COc2ccccc2O1 (stereo not drawn) do in these assays?
OX1R antag: 4

What do the screens show for `COCCCNS(=O)(=O)c1ccc(S(=O)(=O)N2CCCC2)cc1`?
OX1R antag: 44

How did CCOc1cc(CNn2cnnc2)cc(Br)c1OCC(=O)NC1CCCCC1 do in these assays?
OX1R antag: 21

How did Cc1ccc(NC(=O)CSc2nc(C)c(C)c(C)n2)c([N+](=O)[O-])c1 do in these assays?
OX1R antag: 28

How did CCc1c(C#N)c(SCCC(=O)Nc2ccc(C)cc2)nc2c1C(=O)CC(C)(C)C2 do in these assays?
OX1R antag: 0

How did COC(=O)[C@@]12CCCCN1[C@H](c1ccc(-c3ccccc3)c(OC)c1)[C@H]1C(=O)N(C)C(=O)[C@H]12 do in these assays?
OX1R antag: 13

How did CC1CC(C)(C)NC(=S)N1CCCC(=O)Nc1ccc2c(c1)OCCO2 (stereo not drawn) do in these assays?
OX1R antag: 21

How did S=c1[nH]nc(CN2CCCC2)n1Cc1ccccc1 do in these assays?
OX1R antag: 20

What do the screens show for `CCn1cc(C(=O)NCc2ccccc2F)c(=O)c2ccc(C)nc21`?
OX1R antag: 13

Results for CC(=O)N1CCc2cc(S(=O)(=O)CCC(=O)N3CCN(C(=O)c4ccco4)CC3)ccc21 ?
OX1R antag: 5

What do the screens show for `CCN(CC)c1ccc(NC(=O)c2ccccc2F)cc1`?
OX1R antag: 18

Results for CCc1nnc(NC(=O)c2ccncc2)s1 ?
OX1R antag: 10

How did NCCCC[C@H]1CNC(=O)C(=O)N1CC1CCCCC1 do in these assays?
OX1R antag: 15

What do the screens show for `CC(C)n1ncc(C(N)=O)c1N`?
OX1R antag: 8

Results for Cc1ccc2[nH]cc(C(=O)NCc3cccs3)c(=O)c2c1 ?
OX1R antag: 17

What do the screens show for `Cc1cc(/C=N/n2cnnc2)c(C)n1-c1ccc(C(=O)O)cc1`?
OX1R antag: 11

What do the screens show for `CCOc1ccc(C(=O)CCN2CCCCC2)cc1`?
OX1R antag: 15

How did O=C(Cc1ccc(O)cc1)NC1CCCCCC1 do in these assays?
OX1R antag: 13

How did Cc1c(OC(C)C(=O)N[C@H](C(=O)O)c2ccccc2)ccc2c3c(c(=O)oc12)CCCC3 (stereo partly drawn) do in these assays?
OX1R antag: 23

What do the screens show for `CC(=O)Nc1ccc(C2=NNC(=Nc3ccc(S(=O)(=O)N4CCOCC4)cc3)SC2)cc1`?
OX1R antag: -2

What do the screens show for `O=C1c2ccccc2C(=O)N1CC1=NCCc2ccccc21`?
OX1R antag: 4

What do the screens show for `COc1ccc(N(CC(=O)NCc2ccco2)S(C)(=O)=O)cc1OC`?
OX1R antag: 7

Taken from the entries so far, 13 compounds:
Results for CC(=O)N1CCc2cc(S(=O)(=O)CCC(=O)N3CCN(C(=O)c4ccco4)CC3)ccc21 ?
OX1R antag: 5

What do the screens show for `CCN(CC)c1ccc(NC(=O)c2ccccc2F)cc1`?
OX1R antag: 18

Results for CCc1nnc(NC(=O)c2ccncc2)s1 ?
OX1R antag: 10

How did NCCCC[C@H]1CNC(=O)C(=O)N1CC1CCCCC1 do in these assays?
OX1R antag: 15

What do the screens show for `CC(C)n1ncc(C(N)=O)c1N`?
OX1R antag: 8

Results for Cc1ccc2[nH]cc(C(=O)NCc3cccs3)c(=O)c2c1 ?
OX1R antag: 17

What do the screens show for `Cc1cc(/C=N/n2cnnc2)c(C)n1-c1ccc(C(=O)O)cc1`?
OX1R antag: 11

What do the screens show for `CCOc1ccc(C(=O)CCN2CCCCC2)cc1`?
OX1R antag: 15

How did O=C(Cc1ccc(O)cc1)NC1CCCCCC1 do in these assays?
OX1R antag: 13

How did Cc1c(OC(C)C(=O)N[C@H](C(=O)O)c2ccccc2)ccc2c3c(c(=O)oc12)CCCC3 (stereo partly drawn) do in these assays?
OX1R antag: 23

What do the screens show for `CC(=O)Nc1ccc(C2=NNC(=Nc3ccc(S(=O)(=O)N4CCOCC4)cc3)SC2)cc1`?
OX1R antag: -2

What do the screens show for `O=C1c2ccccc2C(=O)N1CC1=NCCc2ccccc21`?
OX1R antag: 4

What do the screens show for `COc1ccc(N(CC(=O)NCc2ccco2)S(C)(=O)=O)cc1OC`?
OX1R antag: 7

(further entries)
How did CCn1cc([N+](=O)[O-])c(C(=O)Nc2ccc(Cn3nc(C)cc3C)cc2)n1 do in these assays?
OX1R antag: 29

Results for CCN1C(=O)C(=O)N(CC(=O)N2CCC(C)Sc3ccccc32)C1=O (stereo not drawn) ?
OX1R antag: 2

What do the screens show for `CNCc1ccccc1OCC(=O)Nc1ccccc1`?
OX1R antag: 5

What do the screens show for `Cc1cccc(N=C2NC(=O)C(CO)(CO)S2)c1`?
OX1R antag: 3

Results for Cc1ccccc1CNC(=O)CCCn1ncn2c(cc3occc32)c1=O ?
OX1R antag: 15

How did CC(=O)Oc1ccc(C(=O)[C@H]2[C@H]3C(=O)N(c4ccc5ccccc5c4)C(=O)[C@H]3[C@@H]3C=CC=NN32)cc1 do in these assays?
OX1R antag: 25

What do the screens show for `O/N=C/CCn1c(=S)sc2ccccc21`?
OX1R antag: 7

What do the screens show for `Cc1csc(=O)n1CCC(=O)O`?
OX1R antag: 7

What do the screens show for `C/C(=N\NS(C)(=O)=O)c1ccc(C)cc1`?
OX1R antag: 5

How did CCCCCCC(=O)Oc1cccc(N2C(=O)C3CCCCC3C2=O)c1 (stereo not drawn) do in these assays?
OX1R antag: 19

What do the screens show for `CCSc1cc(C)nc2c(-c3ccc(Cl)cc3)c(C)nn12`?
OX1R antag: 11

What do the screens show for `N#Cc1nc(COc2ccccc2)oc1NCCCn1ccnc1`?
OX1R antag: 19
